Screens (PubChem)
Hedgehog cleavage: Hh protein inhibition, biochemical readout – plate reader, single concentration, primary screen (AID 588832); inhibition, % at 30.3 µM; Biochemical plate reader assay, Hedgehog inhibition; hits give high values; 8,000 tested, under 10 active; in the data active = inhibition from about 57%;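 note: 0% = neutral control wells and 100% = positive control wells; cholesterol-driven self-cleavage of fly hedgehog protein by fluorescence polarization; read one hour after cholesterol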
Numbers without * were called inactive. An excerpt; count on the stated rates, not on these rows.

SMILES | Hedgehog cleavage
COc1ccccc1N(C(=O)NCc1ccccc1)C1=NCC(C)S1 (stereo unspecified) | 0.9
COc1ccc(-n2c(Cc3cccn3C)nnc2SCC(=O)Nc2ccc(C)cc2C)cc1 | 10.0
CCN(C(=O)C1CCCN1S(=O)(=O)c1ccc2c(c1)n(C)c(=O)c(=O)n2C)c1ccccc1 (stereo unspecified) | 6.3
O=C(CCn1c(=O)oc2ccccc21)NCCN1CCOCC1 | 19.1
COc1ccc(N(CC(=O)NCc2cccs2)S(=O)(=O)c2cccnc2)cc1 | 20.0
COc1ccc(C2=NS(=O)(=O)N(C)C(C(=O)N3CCCCC3)=C2)cc1OC | 5.1
Cn1cccc1Cc1nnc(SCC(=O)N2CCc3ccccc32)n1CCc1ccccc1 | 20.0
COc1cc(CC2COC(=O)C2(O)Cc2ccc(O)c(OC)c2)ccc1O (stereo unspecified) | 3.5
CCOc1ccc(NC(=O)CSc2nc3ccccc3nc2N2CCOCC2)cc1 | 7.1
COc1cc(NC(=O)Cn2nc(Cc3cccnc3)c3ccccc3c2=O)cc(OC)c1OC | 3.6
O=C(NCCc1ccccc1)C1CCN(C(=O)N2CCOc3ccccc32)CC1 | 8.4
O=C1Nc2ccc(S(=O)(=O)N3CCCCCC3)c3cccc1c23 | 3.6
Cc1cc2cc(CNC(=O)C3CCCC3)ccc2n1C | 7.2
CCN1CCSc2ccc(C(=O)NCc3ccccc3C)cc21 | 3.5
O=C1C2CCCN2C(c2cccc(Br)c2)N1c1ccc(F)cc1 (stereo unspecified) | 10.7
CCOC(=O)c1sc2nc(NC(=O)COc3ccccc3)sc2c1C | -1.8
COc1ccc(CNC(=O)CN2C(=O)C(c3ccccc3)Oc3cccnc32)cc1 (stereo unspecified) | 9.1
COc1ccc(OC)c(N(C)S(=O)(=O)c2cc3c(cc2C)NC(=O)CO3)c1 | 7.0
O=S(=O)(NCCn1ccc2ccccc21)c1ccccc1 | 8.0
Cc1ccc(NC(=O)Cn2cc3c(n2)CCC(C)C3)cc1 (stereo unspecified) | 14.9
Cn1cccc1Cc1nnc(SCC(=O)N2CCOCC2)n1-c1ccc(F)cc1 | 16.7
CCCN1CCN(C(=O)CCS(=O)(=O)c2cc3c(cc2Cl)NC(=O)CO3)CC1 | 7.2
NS(=O)(=O)c1ccc(NC(=O)CSc2nc3ccccc3nc2N2CCOCC2)cc1 | 1.7
CCCN(CCC)C(=O)c1c(C)[nH]c(C(=O)OCC)c1C | -4.2
CCc1nc(SCc2ccccn2)c2c(=O)n(C)c(=O)n(C)c2n1 | 5.2
Cc1ccc(-c2nn3c(C)nnc3s2)cc1NC(=O)COc1ccc(Cl)cc1 | 6.3
Oc1c(C(c2cccs2)N2CCC3(CC2)OCCO3)sc2ncnn12 (stereo unspecified) | 9.5
O=C(CCc1nc2ccccc2[nH]1)Nc1ccc2c(c1)OCCO2 | 10.0
CN(C)C(=O)N1CCN(C(=O)c2ccco2)CC1 | 8.7
Cc1cccc(NS(=O)(=O)c2nnc(NC(=O)c3ccccc3F)s2)c1 | 5.5
Cc1cccc(N(C)C(=O)c2cc(S(=O)(=O)N3CCc4ccccc43)cn2C)c1 | 3.8
Fc1ccc(C2CC(c3ccco3)n3ncnc3N2)cc1 (stereo unspecified) | 0.0
COc1ccc(NC(=O)Cn2c(=O)sc3ccccc32)c(OC)c1 | 4.2
COC(=O)CN(c1ccc(C(C)C)cc1)S(=O)(=O)c1c(C)[nH]c(=O)[nH]c1=O | 1.8
COCCNC(=O)c1cn(C)c2ccc(S(=O)(=O)N(C)C3CCCCC3)cc2c1=O | 8.7
CC(=O)OC1CCC2(C)C(=CCC3C2CCC2(C)C3CC3OC4(CCC(C)CN4)C(C)C32)C1 (stereo unspecified) | 6.9
Cc1oc(-c2ccccc2F)nc1CS(=O)(=O)CC(=O)N1CCN(Cc2ccccc2)CC1 | 3.4
Cc1ccccc1NC(=O)c1cc(S(=O)(=O)N2CCOCC2)cn1C | 3.6
O=C(COc1ccc(=O)n(-c2ccccc2)n1)Nc1ccccc1 | 0.9
COc1ccc(/C=C/C(=O)c2ccc(OC)cc2OC)c(OC)c1 | 7.0
CCOc1ccc2nc(N3CCC(C(=O)N4CCN(C5CCCCC5)CC4)CC3)sc2c1 | 12.9
COC1OC2COC(c3ccccc3)OC2C(O)C1NC(C)=O (stereo unspecified) | 1.8
O=C(NCCCN1CCOCC1)c1ccccc1N1C(=O)[C@@H]2Cc3c([nH]c4ccccc34)C(c3cccc(Cl)c3)N2C1=O (stereo partly specified) | 0.0
COc1ccc(C2CC(=O)c3c(O)cc(O)cc3O2)c(CC=C(C)C)c1OC (stereo unspecified) | 6.9
COc1ccc(-c2nc(Cn3c(SCc4cccc(F)c4)nc4ccncc43)c(C)o2)cc1OC | 3.4
COc1ccc(OC)cc1 | 13.8
COc1ccc(CCNC(=O)c2cc(CC(C)C)on2)cc1OC | 5.1
CC(C)C[C@H](NC(=O)N1CC(=O)Nc2ccccc21)C(=O)N[C@@H](Cc1c[nH]c2ccccc12)C(=O)O | 10.5
CCOC(=O)N1CCN(Cc2nc3c(c(=O)n(C)c(=O)n3C)n2Cc2ccccc2)CC1 | 9.1
CCOC(=O)Cn1cnc2c(nnn2-c2ccc(F)cc2)c1=O | 8.4
COc1ccc(C2=NOC(C(=O)Nc3cc(C)nn3-c3ccccc3)C2)cc1OC (stereo unspecified) | 4.4
COC(=O)CSc1nc2nc(C)cc(C)n2n1 | 4.2
CCc1nnc(NC(=O)c2ccc(S(=O)(=O)N(CC)CC)cc2)s1 | 1.8
COc1ccc(Cl)cc1S(=O)(=O)N1CCN=C1C | 4.6
Cc1oc(-c2ccccc2F)nc1CS(=O)(=O)CC(=O)NCCN(C)C1CCCCC1 | 0.0
CC(=O)c1cccc(NC(=O)CN(C)S(=O)(=O)c2ccc3c(c2)CCC(=O)N3)c1 | 3.5
COc1cc2c(c(O)c1OC)C1Cc3ccc(OC)c(OC)c3CN1CC2 (stereo unspecified) | 6.9
CCCN(CC1CC1)S(=O)(=O)c1ccc(S(N)(=O)=O)cc1 | 8.7
CCCN(CCC)C(=O)Cn1c(=O)c2sccc2n2c(=S)sc(-c3ccccc3)c12 | 12.5
O=C(Cn1cnc2c(nnn2-c2ccccc2)c1=O)N1CCC(Cc2ccccc2)CC1 | 6.4
Additional entries
SMILES | Hedgehog cleavage
Cc1c(C(=O)NCC(C)C)sc2nc(-c3ccc(F)cc3)cn12 | 5.2
O=C(COc1ccc2c3c(c(=O)oc2c1)CCC3)NC(Cc1ccc(Cl)cc1)C(=O)O (stereo unspecified) | 3.4
O=C(Cn1ncc2c(=O)oc3ccccc3c21)N1CCc2ccccc2C1 | -0.1
CCc1nc(SCC(=O)Nc2cc(C)on2)c2c(=O)n(C)c(=O)n(C)c2n1 | 1.8
Cc1ccc2oc(=O)c3cnn(CC(=O)N(CCCN4CCOCC4)Cc4ccco4)c3c2c1 | 3.5
O=C(COc1ccccc1)NCc1nnc(SCC(=O)Nc2nccs2)n1-c1ccccc1 | 0.9
COc1cccc(CNS(=O)(=O)c2cc3c(cc2C)NC(=O)CO3)c1 | 1.8
Cc1ccc(CNC(=O)CCS(=O)(=O)c2cc3c(cc2C)NC(=O)CO3)cc1 | 1.8
COc1ccc(CCNC(=O)COc2cc(O)c3c(c2)OC(C)(C)CC3=O)cc1OC | 3.3
CC(=O)Oc1cc(O)c2c(=O)c(OC(C)=O)c(-c3ccc(OC(C)=O)c(OC(C)=O)c3)oc2c1 | 19.3
Cc1ccc(NC(=O)c2cccc(NC3=NC4CS(=O)(=O)CC4S3)c2)cc1 (stereo unspecified) | 3.4
CCN(C1CCCCC1)S(=O)(=O)c1ccc(S(=O)(=O)N2CCN(CCC#N)CC2)cc1 | 12.9
O=C1Nc2ccccc2C1=O | -1.7
CC1CCCC(C)N1CCNC(=O)CCc1nnc2n(Cc3ccccc3)c(=O)c3ccccc3n12 (stereo unspecified) | 14.9
CC1CN(S(=O)(=O)c2cn(C)c(=O)n(C)c2=O)CC(C)O1 (stereo unspecified) | 1.7

Of the compounds above, five have a Cl atom:
SMILES | Hedgehog cleavage
CCCN1CCN(C(=O)CCS(=O)(=O)c2cc3c(cc2Cl)NC(=O)CO3)CC1 | 7.2
Cc1ccc(-c2nn3c(C)nnc3s2)cc1NC(=O)COc1ccc(Cl)cc1 | 6.3
O=C(NCCCN1CCOCC1)c1ccccc1N1C(=O)[C@@H]2Cc3c([nH]c4ccccc34)C(c3cccc(Cl)c3)N2C1=O (stereo partly specified) | 0.0
COc1ccc(Cl)cc1S(=O)(=O)N1CCN=C1C | 4.6
O=C(COc1ccc2c3c(c(=O)oc2c1)CCC3)NC(Cc1ccc(Cl)cc1)C(=O)O (stereo unspecified) | 3.4

A run of entries from the list above, as a working copy:
SMILES | Hedgehog cleavage
O=C1Nc2ccccc2C1=O | -1.7
CC1CCCC(C)N1CCNC(=O)CCc1nnc2n(Cc3ccccc3)c(=O)c3ccccc3n12 (stereo unspecified) | 14.9
CC1CN(S(=O)(=O)c2cn(C)c(=O)n(C)c2=O)CC(C)O1 (stereo unspecified) | 1.7

The listing picks up, repeating the two entries before the break.
SMILES | Hedgehog cleavage
CC1CCCC(C)N1CCNC(=O)CCc1nnc2n(Cc3ccccc3)c(=O)c3ccccc3n12 (stereo unspecified) | 14.9
CC1CN(S(=O)(=O)c2cn(C)c(=O)n(C)c2=O)CC(C)O1 (stereo unspecified) | 1.7
CCCN(CCC)C(=O)c1ccc2c(c1)N(Cc1ccccc1)C(=O)CS2=O (stereo unspecified) | 14.9
Cc1ccc2c(c1)-c1c(cnn1CC(=O)N(CCC#N)c1ccccc1)CO2 | 20.0
COc1cccc(-c2nc(CS(=O)CC(=O)NCc3ccccc3)c(C)o2)c1 (stereo unspecified) | 7.3
CCOC(=O)C1CCCN(c2c(C(=O)c3ccccc3)cnc3ccc(OC)cc23)C1 (stereo unspecified) | 15.0
CCOC(=O)c1ccc(NC2c3ccccc3C(=O)N2c2ccc(C)cn2)cc1 (stereo unspecified) | 9.1
Cc1nc2ccc(S(=O)(=O)CCC(=O)NCCc3ccccc3)cc2s1 | 0.8
Cc1c2cnn(-c3ccccc3)c(=O)c2c(C)n1CCCC(=O)N1CCN(C)CC1 | -1.7
COc1ccc(CNC(=O)[C@@H](NC(=O)C2CCN(C(=O)[C@@H]3CCCN3C(=O)OC(C)(C)C)CC2)C(C)C)cc1 | 5.3
O=C(O)C1CCN(C(=O)COc2ccc3c4c(c(=O)oc3c2)CCCC4)CC1 | 6.9
Cc1cc2ccccc2n1CCNC(=O)C(C)Oc1ccccc1 (stereo unspecified) | -3.4
COc1ccc(C(O)C2c3c(cc4c(c3OC)OCO4)CCN2C)c(CO)c1OC (stereo unspecified) | 6.9
CCOC(=O)N1CCC(NC(=O)c2ccc3c(c2)N(Cc2ccccc2)CCS3)CC1 | -4.5
Cc1noc(C)c1S(=O)(=O)NCc1ccc2c(c1)OCO2 | 13.5
Cc1ccc2c(c1)NC(=O)C(CC(=O)NCCN(CC(C)C)CC(C)C)O2 (stereo unspecified) | 16.7
COc1ccc(-c2noc(N3CCC(C(=O)Nc4ccccc4Cl)CC3)n2)cc1 | 1.7
COc1ccc(S(=O)(=O)N2CCC(C(N)=O)(N3CCCCC3)CC2)cc1 | 7.7
CCOC(=O)N1CCN(C(=O)CSc2nnc(C3COc4ccccc4O3)o2)CC1 (stereo unspecified) | 2.6
O=C(Nc1ccc(Oc2ccccc2)cc1)c1ccc(Cn2c(=O)[nH]c3ccsc3c2=O)cc1 | -5.2
Cc1ccc(C)c2sc(NC(=O)c3nc4ccccc4s3)nc12 | 4.6
COc1ccc(/C(C)=N/N2C(=O)c3ccccc3NC2c2ccc(O)c(OC)c2)cc1 (stereo unspecified) | 0.8
CN(CC(=O)O)C(=O)c1ccccc1 | 13.8
CCC1CCCCN1C(=O)c1cc2cc(Br)ccc2oc1=O (stereo unspecified) | 25.0
Cc1nc(SCc2c(F)cccc2Cl)c2c(=O)n(C)c(=O)n(C)c2n1 | 14.5
CCc1ncc(C)nc1CC | 5.2
Nc1ccc(C(=O)O)cc1 | 0.0
CSC1=NCCN1C(=O)Cc1ccc(Cl)cc1 | 5.5
CCN1CCc2c(sc(NC(=O)C3CCCCC3)c2C(=O)OC)C1 | 3.6
Cc1csc2nc(CNS(=O)(=O)c3ccc4c(c3)CCCC4)cn12 | -1.8
COc1cccc(CNC(=O)[C@@H](C)N2C(=O)N3CCc4c([nH]c5ccc(OC)cc45)C3(C)C2=O)c1 (stereo partly specified) | 0.0
COc1cc(-c2cc(=O)c3ccc(O)cc3o2)cc(OC)c1OC | 1.7
Cc1cc(=O)n2nc(N3CCCC(C(=O)Nc4cccc(C)c4C)C3)sc2n1 (stereo unspecified) | 5.2
CCCCCSc1nc2c(c(=O)[nH]c(=O)n2C)n1C(C)C | -9.5
CCOc1ccc(CCNC(=O)C2CCCN(S(=O)(=O)N3CCCCC3)C2)cc1OCC (stereo unspecified) | 0.8
CCOC(=O)Cn1nc(-c2ccccc2)c2cnc3ccc(C)cc3c21 | -5.6
CC(C)C[C@H](NC(=O)N1CCn2c1nc1ccccc12)C(=O)N[C@@H](Cc1ccccc1)C(=O)O | 1.7
Cn1cc(S(=O)(=O)N2CCc3ccccc32)cc1C(=O)NC1CCCCC1 | 10.2
Cc1ccc(NC(=O)CCNS(=O)(=O)c2ccc3c(c2)CCC(=O)N3)cc1F | 0.0
Cc1cccc(N2CCN(C(=O)Cn3sc4nc(C)cc(C)c4c3=O)CC2C)c1 (stereo unspecified) | 7.1
COc1cccc(-n2c(SC)nnc2-c2c[nH]c3ccccc23)c1 | 14.1
CCCOc1ccc(N2CC(C(=O)Nc3ccc4c(c3)OCO4)CC2=O)cc1 (stereo unspecified) | 15.4
O=C(Cc1ccc(NC2=NC3CS(=O)(=O)CC3S2)cc1)Nc1ccc(F)cc1 (stereo unspecified) | -1.7
COc1ccccc1N1CCN(C(=O)c2cc3c(=O)n(C)c4ccccc4c3n2C)CC1 | 10.7
Cc1nn2c(=O)cc(CSc3nc4ccccc4[nH]3)nc2s1 | 6.8
COc1ccc(CCNC(=O)C(=O)NCC2OCCN2S(=O)(=O)c2ccc(F)cc2)cc1 (stereo unspecified) | 3.5
CCN(CC)CCN1C(=O)c2oc3ccc(F)cc3c(=O)c2C1c1ccncc1 (stereo unspecified) | 19.1
C=C(C)COc1ccc2c(C)c(CC(=O)N3C[C@H]4C[C@@H](C3)c3cccc(=O)n3C4)c(=O)oc2c1 | 8.7
COc1ccc(NC2c3ccccc3C(=O)N2Cc2ccco2)cc1OC (stereo unspecified) | 24.1
